Compound activity from PubChem.
RGS16-Gao = modulators of RGS16 binding to Galphao, primary screen, biochemical, human proteins, multiplexed bead flow cytometry. Regulator of G-protein signaling 16 (Homo sapiens) + Guanine nucleotide-binding protein …. bead-based flow cytometry RGS16-Galphao binding, fluorescence; actives lie on both sides. binding response (% of control), % at 10 µM. 0.38% of 220,000 active. AID 1441, 2008;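 active = below 25% or above 175%, edge rows of some plates excepted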;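 also: Galphao activated by GDP with aluminum fluoride before binding; 100% = wells without compound and 0% = beads without RGS; some results beyond the cut were filed as inactive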
Target sequence (O15492 whole entry, looked up): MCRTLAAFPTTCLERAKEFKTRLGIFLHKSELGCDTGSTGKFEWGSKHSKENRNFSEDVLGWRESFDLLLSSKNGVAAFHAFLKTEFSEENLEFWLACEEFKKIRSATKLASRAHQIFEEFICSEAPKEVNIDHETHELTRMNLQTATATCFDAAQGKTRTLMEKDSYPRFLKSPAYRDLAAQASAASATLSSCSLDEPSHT
Target sequence (P09471 whole entry, looked up): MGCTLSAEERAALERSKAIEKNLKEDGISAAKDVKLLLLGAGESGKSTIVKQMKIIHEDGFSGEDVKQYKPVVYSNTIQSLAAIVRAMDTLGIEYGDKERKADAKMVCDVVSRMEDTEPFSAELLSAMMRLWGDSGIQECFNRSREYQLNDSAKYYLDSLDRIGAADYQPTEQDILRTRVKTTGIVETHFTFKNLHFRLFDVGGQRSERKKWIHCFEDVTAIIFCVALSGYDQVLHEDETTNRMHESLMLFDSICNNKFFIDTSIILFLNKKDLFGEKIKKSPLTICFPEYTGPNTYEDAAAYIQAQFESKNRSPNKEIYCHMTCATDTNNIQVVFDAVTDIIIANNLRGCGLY
GALR2 agonist = GALR2 receptor agonists, primary screen, cell-based; GALR2-expressing cells, agonist activation read-out; activation, %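 (tested at 5 µM)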; 0.48% of 140,000 active; Galanin receptor type 2 (Homo sapiens), O43603;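 active = above mean plus 3 SD of all compounds, about 5% in these data, not always enough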;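 also: 0% = vehicle buffer wells and 100% = reference agonist at full effect; tested in CHO reporter cells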
Target sequence (O43603 whole entry, looked up): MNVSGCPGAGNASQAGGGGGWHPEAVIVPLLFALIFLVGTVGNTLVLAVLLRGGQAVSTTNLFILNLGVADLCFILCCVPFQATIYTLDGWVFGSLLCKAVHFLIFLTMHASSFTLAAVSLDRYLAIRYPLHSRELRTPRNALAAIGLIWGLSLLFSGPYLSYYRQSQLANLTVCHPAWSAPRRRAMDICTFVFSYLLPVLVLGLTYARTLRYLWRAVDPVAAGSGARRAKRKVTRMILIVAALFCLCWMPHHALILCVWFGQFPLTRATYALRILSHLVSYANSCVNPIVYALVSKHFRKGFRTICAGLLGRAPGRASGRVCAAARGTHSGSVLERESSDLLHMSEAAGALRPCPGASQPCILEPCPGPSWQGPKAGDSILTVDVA
PKD1 inh = inhibitors of human PKD1 kinase, biochemical, fluorescence polarization; PKD1 kinase fluorescence polarization assay; inhibition, %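 (about 10 µM by stock and volumes)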; 0.056% of 200,000 active;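 active = inhibition of 50% or more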;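 also: controls were vehicle for no effect and a reference inhibitor for full effect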
Insulin prom inh = inhibitors of insulin promoter-driven GFP, primary screen, imaging, TRM-6 cells (human fetal islet line), eGFP reporter, cell count; reporter expression induced with tamoxifen; inhibition, % at 2 µM; 0.9% of 130,000 active;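 active = inhibition above the mean plus 3 SD, with well images judged a real hit on visual review, cut at about 60% in these data, passing the limit was not always enough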
HSV replic up = enhancers of HSV replication in host cells, fold increase, host cell viability; HSV replication augmentation in cells; maximum fold increase; 0.005% of 220,000 active; AID 1956, 2009;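 active = peak rise of 1.5-fold or more in the series; tested in PC3 cells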;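 also: first round at 10 µM; read as green reporter fluorescence; hits show the peak of a series up to 25 µM; 1 = signal of infected wells without compound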
Insulin prom inh cell count = further read-out of Insulin prom inh, marked with its call; normalized cell count, %; measured here: cell count, toxicity; reference of the scale not given here;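 cells exposed to compound for 48 h; stained nuclei by imaging scaled within each plate; lower means fewer cells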
HSV replic up primary fold = further read-out of HSV replic up, marked with its call; fold increase; compound at 10 µM; measured here: primary screen fold increase 10 uM; tested in PC3 cells;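 GFP signal in the first replicate; 1 = infected wells without compound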
* marks the source's active call; other numbers are inactive results; i = inactive; . = no result given. Hits appear at their usual frequency; about 1.3% have a hit in one of these screens.

Molecule	RGS16-Gao	GALR2 agonist	PKD1 inh	Insulin prom inh	Insulin prom inh cell count	HSV replic up	HSV replic up primary fold
COc1ccccc1NC(=S)N(Cc1ccco1)Cc1cc2ccc(C)c(C)c2[nH]c1=O	107	2.2	-1	.	.	i	0.63
NC1=NC2(CCCCC2)N(c2ccc(F)cc2F)C(N)=N1	106	.	-2	.	.	i	0.98
Cc1ccc(NC(=O)N2CCN(C/C=C/c3ccccc3)CC2)cc1	98	.	-4	.	.	i	0.88
CCCC(=O)Nc1ccc(C(=O)Nc2cccc(OC)c2)cc1	113	-0.3	-6	-25	140	.	.
Cc1nsc(N)c1C(=O)O	90	.	.	.	.	i	1
COc1ccc(OCC(=O)N/N=C(\C)c2cc3ccccc3o2)cc1	109	-0.6	-7	40	43	i	0.99
O=C(CSc1nc2sc3c(c2c(=O)[nH]1)CCCC3)NCCO	97	-2.5	-8	.	.	i	0.9
Cc1ccc(CN2CCNC(=O)C2CC(=O)N(C)CCc2ccccc2)cc1 (configuration not stated)	94	.	6	.	.	i	0.96
CCOC(=O)COc1ccc(C(=O)c2ccccc2)c(O)c1	100	0.5	11	-55	118	i	0.87
O=C(NCCNc1nccc(C(F)(F)F)n1)c1cccs1	94	.	.	.	.	i	0.93
COC(CN1C(=O)C(O)=C(C(C)=O)C1c1ccccn1)OC (configuration not stated)	103	-3.3	-3	9	53	i	1.1
CCOC(=O)C(NC(C)=O)(NC(C)C)C(F)(F)F (configuration not stated)	101	.	.	.	.	i	0.87
O=C(NNC(=O)c1ccncc1)NC1CCCCC1	109	.	7	.	.	i	0.95
Cc1nc2n(c(=O)c1CCN1CCC(c3noc4cc(F)ccc34)CC1)CCCC2	98	.	.	.	.	i	1
O=C(NC(=S)NNC(=O)[C@H]1C[C@@H]1c1ccccc1)c1ccc(F)cc1	102	.	.	.	.	i	1.1
CCCN1CCC(NC(=O)Nc2ccccc2C(=O)OC)CC1	99	-0.3	-2	-14	164	i	0.89
Cc1ccc(NC(=O)C2(C)Cc3ccccc3C(=O)O2)cc1 (configuration not stated)	97	.	6	0	157	i	0.95
COc1cc(C(=O)C(=O)c2ccc(O)c(OC)c2)ccc1O	97	.	.	.	.	i	1.1
COc1ccc(S(=O)(=O)N2CCc3cc(OC)c(OC)cc3C2)cc1	101	.	.	.	.	i	0.92
Cc1sc(-n2c(C)cc(/C=N/n3cnnc3)c2C)c(C#N)c1C	82	1.6	-10	50	78	i	1.1
COC(=O)c1ccc(Oc2nc(NC(C)C)nc(NC(C)C)n2)cc1	99	.	.	.	.	i	1
CCCCNC(=O)c1onc(CSc2cc(C)cc(C)c2)c1C(=O)O	99	-2.6	-17	57	144	i	0.96
COC(=O)Cc1[nH]nc2c1C(c1ccc(O)c(OC)c1)C(C#N)=C(N)O2 (configuration not stated)	99	.	.	.	.	i	1.1
Cn1nc(-c2ccc(Cl)cc2)c2cc(C(=O)NCC3CCCO3)sc21 (configuration not stated)	104	-2.1	0	.	.	i	0.76
Cc1ccc(S(=O)(=O)NC(=O)c2ccc(Br)o2)c(C)c1	87	-2.7	4	-24	112	i	1
CCC(=O)N1CCN(c2ccc(NC(=S)NC(=O)c3ccc(OC)c([N+](=O)[O-])c3)cc2)CC1	82	.	-4	.	.	i	0.94
COc1ccccc1OCc1csc(N)n1	100	.	0	-33	106	i	1
N#Cc1c(C(F)(F)F)cc(C2CC2)nc1N1CCCC1	104	0.4	-6	-76	75	i	1.1
Cc1ccccc1CSc1nnc(-c2ccncc2)o1	103	.	1	.	.	i	0.91
CCCc1cc(=O)[nH]c(SCC(=O)Nc2sc3c(c2C#N)CCC(C)C3)n1 (configuration not stated)	98	.	-5	.	.	i	0.94

Whole records, quoted from the list. Order of screens: RGS16-Gao, GALR2 agonist, PKD1 inh, Insulin prom inh, Insulin prom inh cell count, HSV replic up, HSV replic up primary fold
Profile of Cc1nsc(N)c1C(=O)O : 90, ., ., ., ., i, 1
Profile of O=C(NCCNc1nccc(C(F)(F)F)n1)c1cccs1 : 94, ., ., ., ., i, 0.93
Profile of CCCC(=O)Nc1ccc(C(=O)Nc2cccc(OC)c2)cc1 : 113, -0.3, -6, -25, 140, ., .
Profile of Cc1nc2n(c(=O)c1CCN1CCC(c3noc4cc(F)ccc34)CC1)CCCC2 : 98, ., ., ., ., i, 1
Profile of Cn1nc(-c2ccc(Cl)cc2)c2cc(C(=O)NCC3CCCO3)sc21 (configuration not stated) : 104, -2.1, 0, ., ., i, 0.76

(listing goes on)
Molecule	RGS16-Gao	GALR2 agonist	PKD1 inh	Insulin prom inh	Insulin prom inh cell count	HSV replic up	HSV replic up primary fold
CCNC(=S)N/N=C1\CCCCc2ccccc21	109	0.7	-14	30	153	i	0.99
CN1CCN(NC(=O)CSc2ccc(Cl)cc2Cl)CC1	65	.	0	27	126	i	0.97
CCOC(=O)c1cc(CC)sc1/N=C/C1=C(O)CC(C)(C)CC1=O	100	-0.3	-7	33	109	i	0.97
CCN(CC(=O)Nc1ccc(OC)c(OC)c1)S(=O)(=O)c1ccc(C)cc1	99	-3.4	-1	5	141	i	0.91
O=C(CC1C(=O)NCCN1Cc1ccccc1C(F)(F)F)NCCn1cccn1 (configuration not stated)	112	.	-5	.	.	i	1.1
O=C(CN1CCN(c2ccccc2O)CC1)Nc1cc([N+](=O)[O-])ccc1Cl	93	.	-4	.	.	i	0.75
CCOC(=O)Cc1csc(-n2sc3ccccc3c2=O)n1	37	1.1	2	.	.	i	0.64
Cc1[nH]c2ccccc2c1/C=N/Nc1ccc([N+](=O)[O-])cc1S(=O)(=O)Nc1ccc(Cl)cc1	126	-0.8	-5	-127	35	.	.
Cn1cccc1/C=N/NC(=O)Cc1cccc2ccccc12	104	.	4	-45	110	i	0.99
Cc1cccc(-n2c(SCC(=O)NCc3ccco3)nc3ccccc3c2=O)c1	104	-1.2	-10	.	.	i	0.83
O=C(NC1CCCC1)C(c1ccc(N2CCOCC2)cc1)N(Cc1ccccc1)C(=O)c1ccco1 (configuration not stated)	104	-0.7	0	.	.	i	1
O=C(COc1ccccc1)Nc1ncn[nH]1	102	.	.	.	.	i	0.86
COc1ccc(CNC(=O)COC(=O)/C=C/c2ccc(Cl)cc2)cc1	100	.	-11	.	.	i	0.98
O=C(Nc1ccc2ccccc2c1)c1ccc(Cl)cc1Cl	101	.	.	.	.	i	0.91
CCCCCOCC1CC(C/C(C)=N/NC(N)=O)(C(=O)OCC)C(=O)O1 (configuration not stated)	105	.	.	.	.	i	1.1
O=C(Nc1ccc(S(=O)(=O)N2CCOCC2)cc1)c1cc(-c2cc(Cl)ccc2O)n[nH]1	98	.	.	.	.	i	0.67
CCOC(=O)c1sc2nc(CN3CCN(c4cccc(C(F)(F)F)c4)CC3)[nH]c(=O)c2c1C	62	1.3	-4	.	.	i	1.2
O=C(OCc1cnc(Cl)s1)c1cccs1	103	.	5	-18	85	i	1.2
COc1ccccc1Nc1nc(N)nc(CCl)n1	101	.	.	.	.	i	0.73
COc1cc(C(C)=O)ccc1COc1ccc(C(=O)OCC(=O)NC(C)(C)C)cc1OC	102	-0.5	-11	-10	97	i	0.93
CCOC(=O)C1CCCN(S(=O)(=O)c2cc(OCC(N)=O)c(C)cc2Cl)C1 (configuration not stated)	103	-2.4	-3	-183	88	i	0.88
O=C(/C=C/c1ccc(-c2cccc([N+](=O)[O-])c2)o1)N1CCOCC1	91	.	.	.	.	i	0.83
O=C1CCCCCN1CSc1nc2ccccc2s1	102	-0.7	-1	-14	117	i	1
Cc1ccc(C2CC2C(=O)NNC(=S)Nc2cccc(C)c2)cc1 (configuration not stated)	102	0.8	3	.	.	i	0.9
CC(C)(C)OC(=O)N[C@@H](Cc1ccccc1)c1nnc(SCC(N)=O)o1	101	.	.	.	.	i	1
CCCn1c(CC)nc([N+](=O)[O-])c1Sc1ccc(C)cc1	200	-0.8	-2	-3	58	i	0.71
Cn1nnnc1SCc1nnc(-c2ccc(Cl)cc2)o1	100	-0.9	-9	14	131	i	1
CCN(CC)S(=O)(=O)c1ccc2[nH]c(=O)cc(C(=O)Nc3ccc(C)cc3)c2c1	104	.	2	7	87	i	0.85
CCOc1ccc(CNC(=O)CCc2cn(Cc3ccccc3)c3ccccc23)cc1	80	-0.9	2	-7	113	.	.
CN1N=C(C(F)(F)F)CC1=O	101	.	-1	33	108	i	0.92
COc1ccc(CCNC(=O)CSc2nnc3ccc(-c4cccnc4)nn23)cc1	100	.	-5	-22	82	i	0.93
c1csc(-c2ccnc3ncnn23)c1	34	-0.1	-4	29	95	i	0.88
CC1CN(Cc2nc3c(c(=O)n(C)c(=O)n3C)n2CC(O)CO)CC(C)O1 (configuration not stated)	106	-2.4	-6	.	.	i	0.87
CCCNC(=O)N1CCN(Cc2ccco2)CC1	100	.	0	.	.	i	0.97
Cn1c(CN2CCOCC2)nnc1SCc1ccc(C#N)cc1	111	.	0	.	.	i	0.92
CC(=O)C1=C(c2ccccc2)NC(=S)NC1c1ccc(O)c(O)c1 (configuration not stated)	95	.	-1	.	.	i	0.99
Cc1cc(CCCCCCCCc2cc(C)cc(=O)o2)oc(=O)c1	97	1.1	-6	.	.	i	0.98
Cc1ccc(-n2nnnc2SCC(=O)Nc2cccc(NC(=O)c3ccco3)c2)cc1C	106	-0.3	-7	-79	43	i	0.86
COc1ccc(-n2c(C)cc(=O)c3c2CC(C)(C)CC3=O)cc1	99	-1.7	-7	43	76	i	1
Cc1ccc(Oc2ccc(OCC(=O)NC(CC(C)C)C(=O)O)cc2)cc1 (configuration not stated)	103	.	2	.	.	i	0.93
O=C(Nc1nc(-c2cc3ccccc3o2)cs1)c1ccc(S(=O)(=O)N2CCCC2)cc1	83	-1.8	5	15	157	i	0.84
CCCN1CCN(C(=O)c2ccc(Sc3ccc(C)cc3)c(NC(C)=O)c2)CC1	95	-2.5	9	-17	52	i	1.1
Cc1ccc(NC(=S)N(CCCN2CCCC(C)C2)Cc2ccco2)cc1C (configuration not stated)	102	.	-11	.	.	i	1
CCOc1ccc(-c2nnn(CC(=O)NCc3ccccc3)n2)cc1	114	.	-3	6	132	i	0.9
Cc1sc2ncnc(SCC(=O)NNC(=O)c3ccco3)c2c1C	105	.	3	.	.	i	0.97
COC(=O)CSc1ccc2nnc(CCNS(=O)(=O)c3ccc(C)cc3)n2n1	99	.	-2	.	.	i	1
CC(C)N(Cc1ccccc1)C(=S)Nc1ccc(F)cc1	101	.	2	.	.	i	0.99
Cc1ccsc1C1Nc2ccccc2C(=O)N1O (configuration not stated)	105	-1.6	4	9	126	i	1.1
Cc1cc(C)c([C@@H]2C[C@H]3CN(C4CCCC4)C(=O)[C@]34CCCN24)c(-n2cccn2)c1	103	.	.	.	.	i	1.1
COC(=O)Cn1c(CN(Cc2ccccc2)Cc2ccccc2)nc2c1c(=O)[nH]c(=O)n2C	102	0.2	-6	-6	88	i	0.83
